Assay outcomes deposited in PubChem by National Center for Advancing Translational Sciences (NCATS).
LT uptake inh: qHTS Assay for Anthrax Lethal Toxin Internalization. Potency, µM (top dose mostly 40 µM), for the others: at the top dose activity change, negative = inhibition, most hits filed as inhibitors. AID 912, 2007. Cells, anthrax lethal toxin internalization, FRET ratio (460/530). 0.67% of 70,000 active; active = well fitted falling ratio curve with the 530 nm signal flat; inconclusive = other ratio curves, or a change in one channel alone; inactive = flat curves in the ratio and both channels; the % refers to the ratio; note: % is set by controls: 0 for no effect and ±100 for the full control effect; nearly all actives have a fitted effect of over 50% in size; tested in ME-180 cells; beta-lactamase reporter
Prx2 Sm inh: Schistosoma Mansoni Peroxiredoxins (Prx2); 0.07% of 65,000 active; Schistosoma mansoni peroxiredoxin 2 (Prx2); AID 448, 2006; S. mansoni Prx2 activity coupled to TGR/GSH (TGR is thioredoxin glutathione reductase), NADPH fluorescence loss, qHTS; some inactives read as strong as hits; Potency, µM; active means full or partial inhibition curve with a strong effect at the top dose; inconclusive means weaker partial or single-point curve; inactive means no accepted curve; note: series up to 57 µM; many of its hits are not listed in these tables
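Prx2 inhibition was measured as reduced NADPH consumption when electrons flowed from NADPH through TGR and glutathione to Prx2 and H2O2. Plates were read kinetically over 8 min; enzyme reagents were held at 4 deg C during dispensing.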
* hit, by the source's call; ? = inconclusive; nt = no result given; & = joins results of further samples; [ ] = another dose, or the depositor's remark. Potency is the fitted concentration of half-maximal effect.

SMILES | LT uptake inh | Prx2 Sm inh
O=C(CN1C(=O)CSc2ccccc21)N1CCc2ccccc21 | -5% | >57
Cn1c(=O)n2n(c1=O)[C@H]1[C@H](O)[C@H]3O[C@H]3C(=O)[C@H]1CC2 | 12%[8 µM] | nt
FC(F)Oc1cccc2cccnc12 | 5% | >57
O=C(CSc1nnc(CCc2nc3ccccc3[nH]2)n1-c1ccccc1)NCc1ccco1 | ? | >57
C#CCOC(=O)[C@H](N)CC(N)=O | 17%[8 µM] | >57
NC(=O)CC12CC3CC(C1)CC(CC(N)=O)(C3)C2 | 8% | >57
CCOC(=O)Cc1csc(NC(=O)CSc2nnc(-c3ccc(F)cc3)o2)n1 | -2% | >57
CC(C)CCNC(=O)NC(=O)CSc1nnc(-c2ccccc2F)n1N | 10% | >57
O=C(Cn1c(=O)n(CC2CCCO2)c(=O)c2ccccc21)N1CCN(c2ccccc2)CC1 (configuration not stated) | ? | >57
S=C1SCN(Cc2ccccn2)CN1Cc1ccco1 | -11% | >57
O=C1CC(c2ccccc2)CN1C(=O)c1ccccc1 (configuration not stated) | 11% | nt
COc1ccc(-c2nc3scc(-c4ccccc4)n3n2)cc1 | 0% | >57
O=C(COc1ccccc1Cl)NC(=O)NC1CCCC1 | 7% | >57
Cc1c(C(=O)Nc2ccc(N3CCOCC3)cc2)oc2ccccc12 | -24% | nt
CCN(CC)C(=O)CN1CCN(c2ncccn2)CC1 | ? | >57
Nc1ccc2cc3ccccc3cc2c1 | ? | nt
COc1cc(NC(=O)c2ccco2)c(OC)cc1NC(=O)CCC(=O)Nc1cccc(C)c1C | 4% | >57
COc1ccc(N(C)S(=O)(=O)c2cccc(C(=O)NC3=NCCS3)c2)cc1 | -4% | >57
Cc1cc(C(=O)Nc2nnc(C(F)(F)F)s2)no1 | 2% | >57
Cc1nc(SCC(=O)NCc2ccccc2)c2c(=O)n(C)c(=O)n(C)c2n1 | 6% | >57
CCCn1c(SCC(=O)Nc2nnc(CC)s2)nc2c1c(=O)n(C)c(=O)n2C | 3% | >57
CCC(=O)N1CCc2cc(S(=O)(=O)NCCC(=O)N3CCc4ccccc4C3)ccc21 | 8% | >57
Cc1ccc(N)cc1[N+](=O)[O-] | 5% | nt
CSCC[C@H](NC(=O)OC(C)(C)C)c1nnc(SCC(=O)Nc2c(C)cccc2C)o1 | 3% | >57
Cc1c(C(=O)O)nn(-c2ccccc2)c(=O)c1C#N | 1% | >57
CN1C(=O)/C(=C2\SC(=S)N(C(CCC(=O)O)C(=O)O)C2=O)c2ccccc21 (configuration not stated) | 3% | nt
CC(C)(C)NC(=O)C1N(c2cccnc2)C(=O)C2C(C(=O)Nc3ccccc3F)C3(C)C=CC21O3 (configuration not stated) | -7% | >57
O=C(CSc1nc2ccccc2c(=O)n1-c1ccccc1)N1CCN(CCO)CC1 | 9% | nt
OC12CCCCC1C(c1ccc3c(c1)OCO3)N(Cc1ccccc1F)CC2 (configuration not stated) | ? | >57
CC(C)Cn1c2nc3ccccc3nc2c2c(=O)n(CCN3CCOCC3)cnc21 | nt | >57
N#Cc1c(SCc2ccccc2)nc(N2CCOCC2)c2c1CCCC2 | ? | nt
COC(=O)C1=C2N(Cc3ccccc3)C(C)=C(C(=O)OC)C(c3ccccc3)N2C(=O)[C@](O)(C(=O)OC)C1 (some centres not stated) | 1%&-1%[8 µM] | nt
CC1CCC2C(=O)N3CCCC3C(=O)N2C1c1ccc(Br)cc1 (configuration not stated) | 2%&-31%[8 µM] | nt
c1ccc(OCCSc2nc3ccccc3o2)cc1 | -30% | nt
CCn1c(=NC(=O)CSC(C)=O)sc2cc(OC)ccc21 | 18% | >57
CSc1nc2oc3c(c2c2nncn12)CC(C)(C)SC3 | ? | nt
C=C(C)CSc1nnc([C@H](CCSC)NC(=O)OC(C)(C)C)o1 | 1% | >57
CCOC(=O)N1CC=C2C(C#N)=C(N)C(C#N)(C#N)[C@H](c3ccc(OC(C)C)c(OCC)c3)[C@H]2C1 | ? | >57
O=C(COc1ccccc1)N1CCN(S(=O)(=O)Cc2ccccc2)CC1 | -6% | >57
CC1(c2ccncc2)Nc2ccccc2-c2nc3ccccc3n21 (configuration not stated) | ? | nt
O=C(O)COc1nsnc1N1CCOCC1 | 0% | >57
COc1ccc(C2=NOC(CN3C(=O)c4ccccc4S3(=O)=O)C2)cc1 (configuration not stated) | -11% | nt
CCOC(=O)C1CCN(C(=O)c2c(-c3c(F)cccc3Cl)noc2C)CC1 | 10% | >57
O=C1CC(C(=O)NC2CCCCC2)C(c2ccccc2)O1 (configuration not stated) | ? | >57
Cc1ccc(-c2nn(CC(=O)NCC3CCCO3)c(=O)c3ccccc23)cc1 (configuration not stated) | 3% | >57
O=S(=O)(NCc1ccc2c(c1)OCO2)c1cnc[nH]1 | -4% | >57
COc1ccc(Oc2ncc3nc(-c4cn(C)c5ccccc45)c(=O)n(C4CC4)c3n2)cc1 | ? | >57
O=C(CSc1nnc(-c2ccco2)o1)c1ccc(F)c(F)c1 | 0% | >57
O=C(O)C1C2CCC(O2)C1C(=O)NCCC1=CCCCC1 (configuration not stated) | 7% | >57
N#Cc1cc2cc3c(cc2nc1SCC(=O)OC1CCCCC1)OCO3 | 11% | >57

Next entries:
SMILES | LT uptake inh | Prx2 Sm inh
O=C(CSc1nnnn1-c1ccccc1)N1CCc2ccccc21 | 11% | >57
COc1ccc(Cc2nnc(SCC(=O)N3CCc4ccccc4C3)o2)cc1 | -9% | >57
O=C(COc1ccc(F)c(Cl)c1)c1ccc[nH]1 | 13% | >57
CC(C)C1N=C2c3ccccc3N=C(SCC(=O)c3ccc(O)c(O)c3)N2C1=O (configuration not stated) | 16% | >57
COc1ccc(C(=O)N2CCC3(CCN(Cc4nccs4)CC3)CC2)cc1 | 5% | >57
Cc1[nH]nc2nc3c(c(OC(=O)c4ccccc4)c12)c(=O)n(C)c(=O)n3C | -1% | >57
NC(=O)CSc1ncc(-c2ccccc2)[nH]1 | -24% | >57
COc1ccccc1CNc1nc(-c2ccccc2CN(C)C)nc2ccccc12 | ? | >57
CCCNC(=O)c1[nH]c(C)c(C(C)=O)c1C | ? | >57
COC(=O)CCCC(=O)OC | -1% | nt
CCCNC(=O)C1=C(C)C(=O)OC12CCC(C)CC2 (configuration not stated) | -8% | >57
c1ccc(-c2nn3c(Cn4nnc5ccccc54)nnc3s2)nc1 | -1% | >57
CN(C)S(=O)(=O)N1CCN(S(=O)(=O)c2ccc(F)cc2)CC1 | 4% | >57
CC(=O)Oc1cc(C(F)(F)F)ccc1C(=O)O | -6%[3.58 µM] | >57
CC(=O)Nc1ccc(-c2nc(C)c(C(C)=O)n2O)cc1 | -10% | >57
O=C(c1ccncc1)N1CCC2(CC1)CCN(c1ccccc1)CC2 | 8% | >57
CCOc1cccc(C2c3c(oc4cc(C)c(C)cc4c3=O)C(=O)N2CCCN(C)C)c1 (configuration not stated) | -21% | >57
COc1ccc(NC(=O)c2oc3ccccc3c2NC(=O)c2ccc(OC)c(OC)c2)c(OC)c1 | ? | >57
CC(C)=CCC(C)(C)C1OCCN1C(=O)c1ccccc1 (configuration not stated) | -8% | nt
COc1ccc(CCNC(=O)c2noc3c2CCCC3)cc1OC | 8% | >57

Full records from above. Order of screens: LT uptake inh | Prx2 Sm inh
CCOc1cccc(C2c3c(oc4cc(C)c(C)cc4c3=O)C(=O)N2CCCN(C)C)c1 (configuration not stated) in the list: -21% | >57
CCCNC(=O)C1=C(C)C(=O)OC12CCC(C)CC2 (configuration not stated) in the list: -8% | >57
CN(C)S(=O)(=O)N1CCN(S(=O)(=O)c2ccc(F)cc2)CC1 in the list: 4% | >57
CC(=O)Nc1ccc(-c2nc(C)c(C(C)=O)n2O)cc1 in the list: -10% | >57
COc1ccc(NC(=O)c2oc3ccccc3c2NC(=O)c2ccc(OC)c(OC)c2)c(OC)c1 in the list: ? | >57

The results go on:
SMILES | LT uptake inh | Prx2 Sm inh
N#C/C(C(=O)N1CCOCC1)=C1\Nc2ccccc2S1 | -2% | >57
COc1ccccc1-c1nc(NCc2ccccc2)c2ccccc2n1 | ? | >57
O=C(NCc1ccco1)C1CCC(CNS(=O)(=O)c2cccc3cccnc23)CC1 (configuration not stated) | -20% | >57
COC(=O)CCC(=O)Nc1ccc(NC(C)=O)cc1 | 3% | >57
CC(=O)N1CCc2cc(C(=O)CN3CCN(C(=O)c4ccco4)CC3)ccc21 | 18% | >57
COCCCNc1oc(-c2ccccc2F)nc1C#N | -1% | >57
COc1ccc2[nH]c(=O)c(CN(C(C)=O)C3CCCCC3)cc2c1 | -11% | >57
c1ccc(CSc2nncn2-c2ccccn2)cc1 | 5% | >57
C=CCSC1=C(C#N)C(c2ccccc2OC)CC(=O)N1 (configuration not stated) | -6% | >57
CCOC(=O)C1CCCN(C(=O)c2sc3nc(-c4ccccc4)cn3c2C)C1 (configuration not stated) | -1% | >57
CSc1ccccc1NC(=O)CN(Cc1ccccc1)S(C)(=O)=O | 14% | >57
O=C(O)c1nn(-c2ccccc2)nc1-c1nn(-c2ccccc2)nc1C(=O)O | -3% | nt
O=C(c1ccccc1)c1ccc(N2CCNCC2)cc1 | -3% | >57
CC1(C)CC(=O)c2sc(NS(C)(=O)=O)nc2C1 | -3% | >57
CCOC(=O)NC(CC(=O)O)c1ccc(OCC)cc1 (configuration not stated) | -2% | >57
C=CCn1c(SCC(=O)c2cccs2)nc2sc(CC)cc2c1=O | ? | nt
Cc1cc(C)nc(NS(=O)(=O)c2ccc(NC(=O)c3ccc4c(c3)OCO4)cc2)n1 | 3% | nt
CC(=O)[C@@]1(N=Nc2ccc(S(N)(=O)=O)cc2)CCOC1=O | -3%[8 µM] | >57
O=C(CCCc1ccccc1)NCCN1CCOCC1 | -6% | >57
CCC(Sc1nnc(-c2ccc(C)c(Cl)c2)n1CC)C(=O)Nc1nccs1 (configuration not stated) | -11% | >57

Among those listed so far, 2 have a CF3 group.
SMILES | LT uptake inh | Prx2 Sm inh
Cc1cc(C(=O)Nc2nnc(C(F)(F)F)s2)no1 | 2% | >57
CC(=O)Oc1cc(C(F)(F)F)ccc1C(=O)O | -6%[3.58 µM] | >57

Continuation.
SMILES | LT uptake inh | Prx2 Sm inh
O=C(c1ccncc1)N1CCC2(CC1)CN(c1ccncc1)C2 | 4% | nt
COc1ccccc1CNC(=O)c1ccc(S(=O)(=O)N(C)C)cc1 | -5% | >57
Cc1cc2cc(CNC(=O)NC3CCCCC3)ccc2[nH]1 | 3% | >57
Cc1cc(C)n(C(=O)C(C)N2C(=O)c3ccccc3C2=O)n1 (configuration not stated) | 7% | >57
COc1ccc(CCN=C2SCC(=O)N2C)cc1OC | -6% | >57
CCOc1ccc(C2=Nn3c(nnc3-c3ccc(OC)cc3)SC2)cc1 | ? | >57
NCCCC(=O)O | 4%&0% | >57&>57
CCSc1nnc2c(Cl)cc(Cl)cn12 | -1% | >57
CCOC(=O)c1cccc(NC(=O)CN2C(=O)C3C4C=CC(C4)C3C2=O)c1 (configuration not stated) | 9% | >57
CC(C)=CCC/C(C)=C/CO/N=C1/C[C@@H](O)[C@@H](O)[C@@H]2[C@@H]3C(=O)N(c4cccc(Oc5ccccc5)c4)C(=O)[C@H]3CC[C@H]12 | 4%[0.32 µM] | nt
CCc1oc2ccccc2c1C(=O)CCN1CCCCC1 | -13% | >57
CCCCn1c(O)c(C(C)=Nc2ccc(C(=O)O)cc2)c(=O)[nH]c1=O | nt | >57
CCNc1ncc2ncc(=O)n(C)c2n1 | -4% | >57
O=c1[nH]c2cc([N+](=O)[O-])c([N+](=O)[O-])cc2[nH]c1=O | -1%&-26% | >26&>57
O=C(NCc1ccccc1)c1cnsn1 | -5% | >57
NC(N)=NCCCCN=C(N)N | -20% | >11&>57&>57
CCc1n[nH]c2c1C(=O)CC(C)(C)C2 | 3% | >57
Brc1ccc2ncnc(NCc3ccco3)c2c1 | -9% | nt
NS(=O)(=O)c1ccc(NC(=O)CN2CCN(Cc3ccccc3)CC2)cc1 | -8% | >57
COC(=O)c1ccc(NC(=O)COc2ccc(S(=O)(=O)NC(C)C)cc2)cc1 | -2% | >57

A different layout for part of the listing above:
| smiles | LT uptake inh | Prx2 Sm inh |
| --- | --- | --- |
| COC(=O)c1ccc(NC(=O)COc2ccc(S(=O)(=O)NC(C)C)cc2)cc1 | -2% | >57 |
| O=c1[nH]c2cc([N+](=O)[O-])c([N+](=O)[O-])cc2[nH]c1=O | -1%&-26% | >26&>57 |

Later entries:
SMILES | LT uptake inh | Prx2 Sm inh
Cc1ccc2[nH]c(=O)c(CN(CCc3ccccc3)Cc3nnnn3CC3CCCO3)cc2c1 (configuration not stated) | -18% | >57
O=S(=O)(c1ccc(S(=O)(=O)N2CCN(C3CCCCC3)CC2)cc1)N1CCCCCC1 | -15% | >57
N[C@H](Cc1cc(I)c(Oc2cc(I)c(O)c(I)c2)c(I)c1)C(=O)O | 5%[3.58 µM] | >57
COC(=O)C1=C(C)NC(=O)NC1/C=C/c1ccccc1 (configuration not stated) | -11% | >57
CC(=O)c1cccc(NC(=O)N2CCN(S(C)(=O)=O)CC2)c1 | 8% | >57
C=C(C)c1cccc(C(C)(C)NC(=O)NCCCn2ccnc2)c1 | -5% | >57
CCCc1cc(=O)n2[nH]c(-c3ccccc3)cc2n1 | 0% | >57

An excerpt (hit frequency here may not be typical).
